Assay outcomes: PubChem BioAssay, several laboratories
Mtb hypoxia rep: Mtb hypoxia fluorescent reporter inhibition; fluorescence inhibition, % (test concentration not listed); actives 0.1% (n = 300,000); M. tuberculosis hypoxia-regulated fluorescent reporter, fluorescence;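 active means 35 to 45% if threefold the growth effect, above 45% if 1.5-fold the growth effect; inactive means the rest, general growth blockers included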;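 further: wells of about 50 µL received 100 nL stock; 0% = vehicle wells and 100% = reference inhibitor wells; whole bacteria with a GFP reporter of the hypoxia response; strong numbers were not always called active; many hits fall short of the cut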
RN4220 kill: S. aureus RN4220 growth inhibition | inhibition, % (no concentration beside the values) | actives 0.33% (n = 330,000) | OD600, 16 h;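 active means z-score of -3 or lower and OD600 up to 0.18 on both plates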;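 further: plate controls were untreated cells for no effect and reference antibiotic for full effect; stock transfer was 100 nL into about 80 µL; one replicate is shown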
PrP UTR inh: suppresses PrP 5' UTR mRNA reporter expression | inhibition, % (test concentration not listed) | AID 488862 | actives 0.35% (n = 340,000) | cell-based PrP 5' UTR mRNA reporter, plate reader;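 active means every replicate at 50% or more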;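 further: 0 = median of the neutral control wells; tested in H4 reporter cells; numbers are from one replicate; inactives centre near -14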
Autofluor counter: flagged as autofluorescent in microsphere protease counterscreen | compound autofluorescence counterscreen, microsphere flow cytometry; hits give high values | fluorescence intensity (no concentration beside the values) | actives 3.1% (n = 360,000);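 active means at least 3 SD above the mean of all compounds, about 16000 in these data; inconclusive means too few beads counted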;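 further: 100 nL of 1 mM stock went into each well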
BJeLR lethal: kills HRASV12-expressing BJeLR cells | inhibition, % (no concentration beside the values) | AID 1554 | actives 0.17% (n = 300,000) | BJeLR (HRASV12) viability, CellTiter-Glo ATP luminescence, 48 h; reference of the scale not given here;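 active means replicate mean above 50%; inconclusive means above 50% but judged a plate artefact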;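 further: 50 nL library stock added to about 25 µL; numbers are from one replicate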
ugtP null kill: compounds lethal to S. aureus RN4220 ugtP deletion mutant; AID 1259309; growth inhibition, % (concentration not given with the values); OD600 growth, 16 h; some inactives read as strong as hits; actives 0.54% (n = 330,000);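 active means z-score under -3 and OD600 up to 0.15 on both plates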;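 further: plate controls were untreated wells for no effect and antibiotic for full effect; wells of about 80 µL received 100 nL stock; the first replicate is given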
Mtb hypoxia rep growth: second read-out of Mtb hypoxia rep, no call of its own (marks repeat the call); growth inhibition, %; measured here: M. tuberculosis growth (absorbance);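 0% = vehicle and 100% = reference antibiotic; read after six days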
Starred values were filed as active, the others as inactive; ? = inconclusive; . = not tested or not shown.

Values run as follows: Mtb hypoxia rep	Mtb hypoxia rep growth	RN4220 kill	PrP UTR inh	Autofluor counter	BJeLR lethal	ugtP null kill
O=C(NC1CCCCC1)C(c1ccncc1)N(C(=O)c1csnn1)c1ccc(F)cc1 (configuration not stated)
    -7	-10	1.1	-13	3277	4	1
CC(C)/C=C1\CC/C(=C\c2ccc(N(C)C)cc2)C1=O
    0	-1	5.6	-53	6586	-6	7
O=[N+]([O-])c1ccc(Sc2ccccn2)nc1
    1	9	7.7	-38	4566	-4	0
Cn1c(Cn2c(=O)sc3ccccc32)nnc1SCC(=O)NCc1ccco1
    .	.	1.5	-13	5886	0	2
O=C(COc1ccc(-c2ccccc2)cc1)NNC(=O)Nc1ccccc1
    0	-1	5.3	-6	2844	.	-2
COc1ccc2nc(C)cc(Nc3cccc(C(=O)O)c3)c2c1
    2	0	-2.7	-23	4231	9	12
COC(=O)N/N=C/c1cc(C)n(-c2cccc3ccccc23)c1C
    .	.	.	-26	2750	11	.
CC(C)(C)c1ccc(S(=O)(=O)N2CCN(c3ncccn3)CC2)cc1
    5	-12	2.1	-3	2046	5	5
COc1cccc(CNc2ccc(N3CCCCC3)cc2)c1OC
    .	.	0.1	-29	2403	.	8
O=C(NN=Cc1ccc(OC(=O)c2cccs2)cc1)c1ccc(F)cc1
    10	4	3.9	.	.	.	-9
N#Cc1ccc(C(=O)NC(=S)NC2CCCCC2)cc1
    2	5	2.5	-8	?	.	13
COc1ccc(C)cc1NS(=O)(=O)c1ccc2c(c1)NC(=O)C(C)S2 (configuration not stated)
    2	-3	21	-2	6077	1	-9
CC1=Nn2c(nnc2-c2cc(-c3ccccc3)n[nH]2)SC1
    .	.	2.2	-46	4836	-2	-3
COc1ccc(C(CNC(=O)c2cccc(NS(=O)(=O)c3ccccc3)c2)N(C)C)cc1 (configuration not stated)
    4	-5	1.0	-32	6090	-2	8
O=C(NC(Cc1c[nH]c2ccccc12)C(=O)Nc1ccc(F)c([N+](=O)[O-])c1)c1cccs1 (configuration not stated)
    1	2	12	40	2471	29	-21
COc1ccc(NC(=O)COC(=O)c2c(F)cccc2Cl)cc1OC
    8	6	2.3	.	.	-10	8
COc1ccc(NC(=O)CSc2nnc(CNc3ccc(F)cc3)o2)c(OC)c1
    0	-3	1.8	-16	3379	0	-6
COc1ccc(C(=O)OCC(=O)NCC2CCCO2)cc1[N+](=O)[O-] (configuration not stated)
    16	7	1.2	-33	3320	-1	7
O=C(NN=C1CCCCCC1)c1ccc(Br)o1
    -1	-6	5.4	-42	2132	-8	0
COc1cc(C2C(C(C)=O)=C(C)Nc3ncnn32)ccc1O (configuration not stated)
    13	11	-7.4	-12	2798	1	0
Cc1c(C(=O)NCCCN2CCOCC2)sc2nc(-c3ccc(F)cc3)cn12
    -6	10	1.4	-9	11571	-5	-15
CN(C)/C(=N\S(=O)(=O)c1ccccc1)c1ccc([N+](=O)[O-])cc1
    .	.	.	6	6888	10	.
N#Cc1ccccc1S(=O)(=O)N1CCN(C(=O)c2cc(-c3ccccc3)nn2-c2ccccc2)CC1
    -8	-4	0.9	-7	5981	2	13
COc1ccccc1C(=O)NNC(=O)c1ccc(Br)cc1
    5	7	3.5	-36	3119	-4	8
CC1(c2nnc(-c3cccc(Cl)c3)o2)CC(c2c(Cl)cccc2Cl)=NO1 (configuration not stated)
    3	-1	23	-19	3395	0	28
Cc1nn(C)c(C(=O)Nc2cccc(Nc3ccccc3)c2)c1[N+](=O)[O-]
    .	.	.	-9	5397	-2	.
COc1cc(OC)cc(C(=O)N[C@H](C(=O)NNC(=O)c2ccc(Br)cc2)C(C)C)c1
    16	5	3.3	-12	4246	.	5
CCOc1ccc(N2CC(O)(c3cccs3)[N+]3=C2CCCC3)cc1 (configuration not stated)
    22	43	0.6	-17	3745	10	12
CC(=O)c1cccc(NC(=O)c2cnn(-c3ccccc3)c2C)c1
    -7	2	-1.4	-50	3673	4	4
CCC1CCCCN1CCCNC(=O)C1CCCN(S(=O)(=O)N2CC(C)CC(C)C2)C1 (configuration not stated)
    10	-1	-0.2	-21	7420	3	6

Some of these compounds in order of molar mass, smallest number first.
Values run as follows: Mtb hypoxia rep	Mtb hypoxia rep growth	RN4220 kill	PrP UTR inh	Autofluor counter	BJeLR lethal	ugtP null kill
O=C(NN=C1CCCCCC1)c1ccc(Br)o1
    -1	-6	5.4	-42	2132	-8	0
CC(=O)c1cccc(NC(=O)c2cnn(-c3ccccc3)c2C)c1
    -7	2	-1.4	-50	3673	4	4
CN(C)/C(=N\S(=O)(=O)c1ccccc1)c1ccc([N+](=O)[O-])cc1
    .	.	.	6	6888	10	.
COc1ccc(C(=O)OCC(=O)NCC2CCCO2)cc1[N+](=O)[O-] (configuration not stated)
    16	7	1.2	-33	3320	-1	7
Cc1nn(C)c(C(=O)Nc2cccc(Nc3ccccc3)c2)c1[N+](=O)[O-]
    .	.	.	-9	5397	-2	.
COc1ccc(NC(=O)COC(=O)c2c(F)cccc2Cl)cc1OC
    8	6	2.3	.	.	-10	8
Cc1c(C(=O)NCCCN2CCOCC2)sc2nc(-c3ccc(F)cc3)cn12
    -6	10	1.4	-9	11571	-5	-15
CC1(c2nnc(-c3cccc(Cl)c3)o2)CC(c2c(Cl)cccc2Cl)=NO1 (configuration not stated)
    3	-1	23	-19	3395	0	28
COc1ccc(NC(=O)CSc2nnc(CNc3ccc(F)cc3)o2)c(OC)c1
    0	-3	1.8	-16	3379	0	-6
O=C(NC(Cc1c[nH]c2ccccc12)C(=O)Nc1ccc(F)c([N+](=O)[O-])c1)c1cccs1 (configuration not stated)
    1	2	12	40	2471	29	-21
CCC1CCCCN1CCCNC(=O)C1CCCN(S(=O)(=O)N2CC(C)CC(C)C2)C1 (configuration not stated)
    10	-1	-0.2	-21	7420	3	6
COc1cc(OC)cc(C(=O)N[C@H](C(=O)NNC(=O)c2ccc(Br)cc2)C(C)C)c1
    16	5	3.3	-12	4246	.	5
N#Cc1ccccc1S(=O)(=O)N1CCN(C(=O)c2cc(-c3ccccc3)nn2-c2ccccc2)CC1
    -8	-4	0.9	-7	5981	2	13

Additional structures
Values run as follows: Mtb hypoxia rep	Mtb hypoxia rep growth	RN4220 kill	PrP UTR inh	Autofluor counter	BJeLR lethal	ugtP null kill
O=c1[nH]cc(S(=O)(=O)NCc2ccccc2)c(=O)[nH]1
    -1	0	-0.5	0	5459	-1	3
CC(C)(CN)CC(=O)O
    .	.	.	-13	6084	2	.
Cc1ccc(OCC(=O)NCc2ccc3c(c2)OCO3)c([N+](=O)[O-])n1
    7	2	4.1	-4	5461	-4	3
CCc1ccc(CN(C)C(=O)CCc2nnc(Cc3cccc(C)c3)o2)nc1
    6	8	-1.1	19	4129	-5	6
Cc1ccc(S(=O)(=O)N(CCC(=O)NCC(c2ccccc2)N(C)C)c2ccccc2)cc1 (configuration not stated)
    7	6	5.4	-9	3550	.	8
O=C(NNc1ncccc1Cl)c1c(Cl)cccc1Cl
    17	12	10	-15	4324	-7	5
CCN(CC)C(=O)CSc1nc(N)c2c3c(sc2n1)CC(C)CC3 (configuration not stated)
    .	.	1.5	-45	4234	9	-12
COc1ccc(S(=O)(=O)Nc2cccc3c2O[C@@H](CN(C)Cc2ccc(C(=O)O)cc2)[C@@H](C)CN([C@H](C)CO)C3=O)cc1
    6	7	-13	-17	3645	.	-4
CN(C)C(CNC(=O)C1CCN(S(=O)(=O)c2ccc(Cl)cc2)CC1)c1ccccc1 (configuration not stated)
    11	-2	0.8	-3	4443	2	3
Cc1cc(C(=O)NN=Cc2cccc3ccccc23)c(C)o1
    14	12	-6.6	.	.	.	-19
COc1ccccc1N(CC(=O)NCc1ccccc1)C(=O)CCC(=O)Nc1nccs1
    2	5	-2.5	-23	2910	-16	3
CC(O)c1c(OCc2ccccc2)ncnc1OCc1ccccc1 (configuration not stated)
    6	1	31	10	2484	2	35
COc1ccc(S(=O)(=O)Nc2cccnc2)cc1OC
    -6	-6	3.4	-5	4476	7	1
COc1ccccc1NC1=C(Cl)C(=O)N(C2CCCCC2)C1=O
    -6	5	-0.6	-17	7468	-6	18
Cc1ccc(C2/C(=C(/O)c3ccc(OC(C)C)cc3)C(=O)C(=O)N2CCN2CCOCC2)cc1 (configuration not stated)
    .	.	6.5	-5	3442	-6	8
O=C(Nc1nnc(-c2ccc3c(c2)CCCC3)o1)c1ccccc1
    .	.	.	5	4001	8	.
COc1ccc(-c2[nH]c3ccccc3c2SCCNC(=O)c2cc3ccccc3oc2=O)cc1
    7	3	23	-2	4150	-10	0
O=C(Nc1ccc(N2CCN(C(=O)c3ccc(Cl)cc3)CC2)cc1)c1ccc([N+](=O)[O-])o1
    .	.	31	8	3366	-3	15
COc1cc(NC(=O)c2cccc([N+](=O)[O-])c2)ccc1NC(=O)c1ccco1
    1	-9	0.1	-27	2134	-4	-9
CCNc1nc(-c2cc(C)n(Cc3ccco3)c2C)cs1
    3	8	1.3	-24	2886	8	13
CCCN(CCC)CCNC(=O)C1(O)c2ccccc2NC(=O)N1c1cccc(OC)c1 (configuration not stated)
    2	-1	0.3	-15	4204	-2	0
Cc1cc(OCC(=O)N2CCN(c3ncccn3)CC2)ccc1Cl
    14	6	-2.2	-18	4883	-1	5
COc1ccc(NC(=O)COC(=O)Cc2coc3cc(OC)ccc23)c(OC)c1
    0	7	4.0	-14	3560	.	4
CC1(C)CC2CC(C)(CN2C(=O)COC(=O)c2cccc(O)c2)C1 (configuration not stated)
    0	2	4.6	-7	4134	.	1
Cc1ccc(SCc2nc(-c3ccccn3)no2)cc1
    .	.	4.8	-70	2645	-7	3
COc1ccc(S(=O)(=O)NCc2csc(C)n2)cc1OC
    -4	-1	4.3	-9	3769	4	-3
COc1cccc2sc(N(CCCN(C)C)C(=O)c3sc4ccccc4c3Cl)nc12
    16	2	0.5	0	2475	-4	-8
CCc1nnc(NC(=O)CCC(=O)NCCc2ccccc2)s1
    14	5	2.0	-9	5699	12	4
Cc1c(C(=O)OCC(=O)Nc2c(C)n(C)n(-c3ccccc3)c2=O)cccc1[N+](=O)[O-]
    4	4	5.4	-4	4008	4	1
O=C(CCC(=O)OCCCC(F)(F)C(F)(F)F)Nc1ccccc1
    6	4	2.2	-13	11176	-1	6
CC(=O)N1C(C)C=C[C@]1(Cc1ccccc1)C(=O)O (some centres not stated)
    7	6	2.5	.	.	.	0
O=C(O)COc1ccc(/C=C/c2nc3ccc([N+](=O)[O-])cc3s2)cc1
    9	-2	29	-17	4630	-3	29
CCC(C)[C@H](NC(=O)NCc1ccccc1Cl)C(=O)O (some centres not stated)
    13	7	8.8	-12	11177	1	4
Cc1cc(NS(=O)(=O)c2ccc(NC(=O)c3ccoc3C)cc2)nc(C)n1
    1	3	-15	-9	3060	.	-4
COc1ccc(-c2nc(-c3ccccc3)nc(Cl)c2C#N)cc1
    -6	0	4.3	-17	15932	4	-11
Cc1ccc(C(=O)NN2C(=O)C3C4C=CC(C4)[C@@H]3C2=O)cc1 (some centres not stated)
    4	7	1.9	-7	5697	3	8
Cc1cccc(Cn2c(O)c(N=NC(=S)Nc3ccccc3F)c3ccccc32)c1
    -4	5	-0.3	11	3861	-4	4
Cc1ccc(S(=O)(=O)N2CCN(C(=O)COC(=O)c3cccc(Cl)c3)CC2)c(C)c1
    -13	-14	6.2	0	3929	.	1
COc1ccc(C(=O)OCC(=O)NCc2ccc3c(c2)OCO3)cc1S(=O)(=O)N1CCOCC1
    4	13	-2.8	-19	3744	.	-7
CC(C)(COC(=O)Nc1ccccc1)COC(=O)Nc1ccccc1
    -5	-7	0.6	-22	3420	2	-6
Cc1ccc(-c2cc(C(F)F)n3ncc(C(=O)N4CCc5ccccc54)c3n2)cc1
    -9	3	3.8	-29	1998	13	-15
NC(=O)CC(NC(=O)Cc1cccc2ccccc12)c1ccc(NC2CC3CCC2C3)c([N+](=O)[O-])c1 (configuration not stated)
    14	10	-1.0	3	2904	0	10
Cc1cc(C(=O)NNC(=O)CCCCC(=O)NNC(=O)c2cc(C)[nH]n2)n[nH]1
    8	11	3.9	-6	2451	-5	6
